Source: PubChem BioAssay (several laboratories)
AF4-AF9 inh – inhibitors of AF4 peptide binding to AF9, primary screen, biochemical, AlphaScreen, biotin-AF4 peptide, FLAG-AF9, single point | inhibition, % at 10 µM | Protein AF-9 (Homo sapiens), P42568 | actives 0.47% (n = 350,000) | AID 651704, 2012;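 active = every replicate reaching a set inhibition limit, whatever the replicate mean, cut at about 25% in these data; inconclusive = mean inhibition reaches that limit but some replicates miss it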;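 note: 0% = plate neutral control median and 100% = total signal loss; the record names both 10 and 1 µM as test concentration; the first replicate is given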
rRNA inh HTS – reduced GFP signal of wild-type E. coli, primary screen, bacterial rRNA inhibitor project, GFP/RFP fluorescence, OD600, single point; E. coli WT GFP vs humanized-ribosome RFP mutants, 24 h; stronger effect = lower value; DMSO median 0, no signal -100; GFP signal change (wild-type ribosome), % (test concentration not listed); actives 1.6% (n = 350,000);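 active = significant combined selectivity score with lowered wild-type GFP, culture density cut under 30%, mutant RFP and density less affected; inactive = any of these conditions unmet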; note: one replicate is shown; some compounds called inactive have numbers as strong as hits
ALR H2O2 inh – inhibitors of human ALR sulfhydryl oxidase, primary screen, biochemical, H2O2 detection, HRP-luminol luminescence, single point; purified ALR, DTT oxidation; inhibition, % (test concentration not listed); FAD-linked sulfhydryl oxidase ALR (Homo sapiens), P55789; AID 485317, 2010; actives 3.8% (n = 290,000);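 active = mean and each replicate at 75% or more; inconclusive = only one of the two met; inactive = neither met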;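 note: stock transfer was 7.5 nL into about 7.5 µL; 0% = neutral wells and 100% = wells with inactivated enzyme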
Target sequence (P55789 whole entry, looked up): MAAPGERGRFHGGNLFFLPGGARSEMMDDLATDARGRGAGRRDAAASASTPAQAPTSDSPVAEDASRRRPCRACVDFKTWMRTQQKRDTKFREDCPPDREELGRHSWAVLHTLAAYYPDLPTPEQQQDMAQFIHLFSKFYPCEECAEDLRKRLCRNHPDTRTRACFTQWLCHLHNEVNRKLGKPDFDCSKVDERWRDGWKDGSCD
Ecoli growth – E. coli growth inhibition, primary screen, OD600 | Escherichia coli growth, 23 h; stronger effect = lower value | OD600 absorbance (test concentration not listed) | actives 0.21% (n = 330,000) | AID 1053175, 2014;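 active = OD600 absorbance below the run mean of sample wells minus 3.6 SD, in any replicate, cut at about 0.56 in these data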;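 note: stock transfer was 300 nL into about 60 µL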
FGF22 binding – binders of human FGF22 protein, primary screen, FGF22 synaptogenesis inhibitor project, biophysical, thermal shift, single point; recombinant FGF22 thermal shift, SYPRO orange fluorescence; percent of sucrose octasulfate shift, DMSO zero; calls only at 9.99 µM; actives 1.5% (n = 340,000); AID 651658, 2012;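 active = melting point raised past a set limit in the mean and every replicate; inconclusive = no clear call; three in four hits are not shown here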
Target sequence (Q9HCT0 whole entry, looked up): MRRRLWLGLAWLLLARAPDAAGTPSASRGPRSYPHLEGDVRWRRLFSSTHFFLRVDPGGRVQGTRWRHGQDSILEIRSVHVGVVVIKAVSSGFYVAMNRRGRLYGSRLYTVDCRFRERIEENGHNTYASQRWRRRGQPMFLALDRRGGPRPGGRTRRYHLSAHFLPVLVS
HNF4A DNA FP – change in binding of human HNF4A to DNA, primary screen, biochemical, fluorescence polarization, FITC-DNA; Hepatocyte nuclear factor 4-alpha (Homo sapiens), P41235; activity change, % at 10 µM; 1 h; actives 0.3% (n = 360,000); in the data active = activity change above about 30%, passing the limit was not always enough;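 note: controls were the assay level and a saturating level of protein; the project sought stronger binding though the title names inhibitors; some compounds called inactive have numbers as strong as hits; positive values seem to mean higher polarization but the record does not say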
Target sequence (P41235 whole entry, looked up): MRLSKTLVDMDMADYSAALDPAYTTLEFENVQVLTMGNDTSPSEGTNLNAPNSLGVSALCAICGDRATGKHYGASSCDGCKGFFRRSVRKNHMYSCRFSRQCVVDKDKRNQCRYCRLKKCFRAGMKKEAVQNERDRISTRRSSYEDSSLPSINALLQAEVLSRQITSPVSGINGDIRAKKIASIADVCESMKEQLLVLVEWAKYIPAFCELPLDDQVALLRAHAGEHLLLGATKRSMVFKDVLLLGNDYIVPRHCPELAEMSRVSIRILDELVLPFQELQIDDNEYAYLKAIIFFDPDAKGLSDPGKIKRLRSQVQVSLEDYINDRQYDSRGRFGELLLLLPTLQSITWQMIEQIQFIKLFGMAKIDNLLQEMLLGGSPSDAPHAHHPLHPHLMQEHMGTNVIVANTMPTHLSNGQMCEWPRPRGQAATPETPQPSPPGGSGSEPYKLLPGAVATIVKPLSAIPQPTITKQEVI
Vif A3G – inhibitors of Vif binding to APOBEC3G peptide, primary screen, biochemical, TR-FRET, GST-Vif 1-94, biotin-A3G peptide, dose response retest (AID 1117319); actives 0.57% (n = 260,000); inhibition, %, or IC50 in µM where a hit was titrated; TR-FRET GST-Vif / biotin-A3G peptide binding; higher % means a stronger effect; test concentration not given here; strong numbers were not always called active;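 active = above the screen mean plus three standard deviations and confirmed in dose response; inconclusive = results disagree or hit not tested in dose response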;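 note: Vif residues 1-94 fused to GST binding biotinylated APOBEC3G peptide 110-148; 0% = full assay without inhibitor and 100% = GST in place of GST-Vif; retest series ran down from 100 µM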
rRNA inh HTS OD600 – also measured in rRNA inh HTS; calls as there; OD600 change, %; measured here: OD600 growth;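 optical density of the mix in the first replicate; 0 = DMSO median and -100 = no signal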
rRNA inh HTS RFP – further read-out of rRNA inh HTS, marked with its call; RFP signal change, %; measured here: RFP humanized mutant strains;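 first replicate; 0 = DMSO median and -100 = no signal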
* = called active by the depositor; i = inactive; u = inconclusive; x = not tested or not shown; & = joins results of further samples.

SMILES | AF4-AF9 inh | rRNA inh HTS | rRNA inh HTS OD600 | rRNA inh HTS RFP | ALR H2O2 inh | Ecoli growth | FGF22 binding | HNF4A DNA FP | Vif A3G
CCCCN1C(=O)CC(Nc2ccc(CC)cc2)C1=O (centres undefined) | 2.4 | 0 | -12 | -4.4 | 16 | 0.69 | i | 2.0 | -8%
Nc1cc(=O)nc(SCC(=O)N(C2CCCCC2)C2CCCCC2)n1-c1ccccc1 | -7.3 | -19 | -20 | 13 | 3 | 0.7 | i | 2.2 | 20%
Cc1ccc(-c2nc(C#N)c(N3CCC(C)CC3)o2)cc1 | 28* | 1 | 4 | 0.1 | x | 0.67 | i | 4.9 | 7%
CN1C(=O)c2cc(NC(=O)C3CCCCC3)ccc2OC[C@H]2O[C@@H](CC(=O)NCC3CCCCC3)CC[C@@H]21 | 1.9 | -5 | -24 | 5.4 | x | x | i | x | x
CCOCc1nnc(NC(=O)c2cc(OC)cc(OC)c2)s1 | -2.1 | -1 | -5 | -5.1 | 5 | 0.69 | i | 3.0 | 0%
O=C(CSc1nnc(-c2cccs2)n1-c1ccccc1)NCC1CCCO1 (centres undefined) | x | x | x | x | 3 | 0.72 | x | 0.6 | -2%
CCc1ccccc1NC(=O)NNC(=O)c1ccc2ccccc2c1O | -8.3 | -6 | -9 | 0.4 | -2 | 0.71 | i | -0.5 | x
Nc1nc(-c2cc(-c3ccccc3)no2)cs1 | 4.2 | -19* | -6.7* | 0.2* | x | 0.64 | i | 0.8 | 1%
C[C@@H](NC(=O)c1nc[nH]c1C(=O)NCC(=O)OCc1ccccc1)c1ccccc1 | 2.4 | -26 | -43 | 17 | x | x | i | -0.5 | x
COc1ccc(N2CSC3=C(C#N)C(c4cc(OC)c(OC)cc4OC)CC(=O)N3C2)c(OC)c1 (centres undefined) | 10 | 3 | 4 | 4.6 | -44 | 0.67 | i | 4.9 | u
Cc1ccsc1/C=N/N=C1\C(=O)Nc2ccccc21 | x | x | x | x | -5 | x | x | 6.1 | 0%
O=C(Nc1ccc2oc(=O)ccc2c1)c1cc2ccccc2o1 | x | x | x | x | 5 | 0.68 | x | 1.6 | -2%
COc1ccccc1CNC(=O)C(=O)NCC1OCCCN1S(=O)(=O)c1ccc(F)cc1C (centres undefined) | -0.2 | -8 | -8 | 2.7 | -6 | 0.69 | i | 3.4 | 3%
Nc1cc(N)nc(SCc2cccnc2)n1 | x | x | x | x | -7 | 0.65 | x | 1.5 | 1%
C[C@H]1CN([C@@H](C)CO)S(=O)(=O)c2ccc(-c3cccnc3)cc2O[C@@H]1CN(C)C(=O)NC1CCCCC1 | -0.7 | -3 | 1 | 2.5 | x | x | i | x | x
Cc1ccc(Nc2nc3ccccc3o2)cc1F | x | x | x | x | 28 | 0.72 | x | -0.1 | 2%
O=C(NC1CCCC1)c1cc(-c2ccccc2)nc2ccccc12 | -1.0 | 9 | 11 | -0.9 | -6 | 0.63 | i | 1.1 | 3%
C=C1C(=O)O[C@@H]2C[C@@H](C)[C@@H]3C=CC(=O)[C@@]3(C)[C@@H](OC(C)=O)[C@H]12 | -12 | 1 | 8 | 1.6 | 33 | x | i | x | 9%
C[C@@H]1CN([C@@H](C)CO)C(=O)c2cc(NC(=O)c3ccncc3)ccc2O[C@@H](C)CCCCO[C@H]1CN(C)Cc1ccc(C(F)(F)F)cc1 | 8.3 | 3 | -12 | 5.9 | x | x | i | x | x
CCOC(=O)C[C@H]1c2ccc(C(F)(F)F)cc2S(=O)(=O)N1c1ccccc1 | -2.8 | -2 | -11 | 0.0 | x | x | i | 0.1 | x
Cc1ccc(C(=O)CNc2ccc(C)cc2C)cc1 | -0.3 | -2 | 3 | -1.0 | -1 | 0.67 | i | -2.0 | x
COc1ccc(C(C#N)Nc2ccc(C)cc2)cc1 (centres undefined) | x | x | x | x | 1 | 0.66 | x | -3.2 | 2%
CN1C(=O)c2cc(NC(=O)Nc3ccccc3)ccc2OC[C@@H]2O[C@@H](CC(=O)NC3CCC3)CC[C@H]21 | -5.6 | -3 | 2 | -2.8 | x | x | i | x | x
O=C(CSc1ncn[nH]1)N/N=C/c1ccc(Br)cc1 | -0.5 | 4 | 1 | -0.4 | -5 | x | i | 3.5 | 0%
Cc1ccc(S(=O)(=O)N(C)C[C@@H]2OCCCC[C@@H](C)Oc3ccc(NC(=O)Nc4ccccc4)cc3C(=O)N([C@H](C)CO)C[C@H]2C)cc1 | 2.2 | 3 | 6 | 0.6 | x | x | i | x | x
SMILES | AF4-AF9 inh | rRNA inh HTS | rRNA inh HTS OD600 | rRNA inh HTS RFP | ALR H2O2 inh | Ecoli growth | FGF22 binding | HNF4A DNA FP | Vif A3G
CCn1c(SCCC(=O)O)nnc1-c1cccnc1 | x | x | x | x | -23 | 0.66 | x | -3.4 | 0%
CC(C)C(c1nnnn1C1CCCC1)N1CCN(C(=O)c2ccco2)CC1 (centres undefined) | 6.0 | -1 | 1 | 8.8 | 0 | 0.69 | i | 0.3 | 4%
O=C(/C=C\Nc1cccc(F)c1)c1cccs1 | x | x | x | x | -7 | 0.7 | x | 1.7 | 6%
Cc1cccc(N(C)c2ccc3cc(S(=O)(=O)N4CCCC4)ccc3n2)c1 | -6.4 | 6 | -1 | 17 | 1 | 0.71 | i | 3.1 | x
COc1ccc(CNC(=O)[C@@H]2CC=C[C@@H]3CCN(Cc4ccc(Cl)c(Cl)c4)C(=O)[C@@H]32)cc1 | x | -24 | -38 | 1.8 | 2 | x | i | 2.0 | x
O=C(NCC[C@H]1CC[C@H](NS(=O)(=O)c2ccc(Cl)cc2)[C@H](CO)O1)c1ccccc1F | -0.5 | -4 | -4 | -2.5 | x | x | i | x | x
Cn1c(=O)oc2cc(S(=O)(=O)NC3CCCCCCC3)ccc21 | x | x | x | x | x | 0.66 | x | 3.3 | 5%
COC(=O)C[C@H]1CC[C@@H]2[C@@H](COc3ccc(NC(=O)c4cccc(Cl)c4)cc3C(=O)N2C)O1 | -16 | -7 | -10 | 2.2 | x | x | i | x | x
Fc1ccc(-n2cc(-c3ccccc3)c3c(NN4CCOCC4)ncnc32)cc1 | 9.7 | -14 | -22 | 22 | 31 | 0.66 | i | -4.1 | x
S=C1NCCN1c1ccc(Cl)cc1 | -3.6 | 11 | 15 | -1.0 | x | x | i | x | x
CCCCN(CCCC)CCNC(=O)c1cn(C)c2ccc(S(=O)(=O)N3CCCC3)cc2c1=O | -2.8 | 0 | -5 | -0.5 | -5 | 0.65 | i | 1.5 | 0%
CCOC(=O)c1nnn(-c2nonc2N)c1CN(CC)c1ccccc1 | x | x | x | x | 16 | 0.7 | x | 1.0 | 3%
Cc1cccc(C)c1OCC(=O)N(Cc1cccs1)C1CCS(=O)(=O)C1 (centres undefined) | -0.3 | -6 | -9 | 2.2 | -1 | 0.63 | i | 12 | 21%
CCOC(=O)Cc1csc(NC(=O)c2c(C)noc2C)n1 | -2.3 | 7 | 0 | 1.6 | -7 | 0.64 | i | 2.8 | 0%
C[C@H](CO)N1C[C@H](C)[C@@H](CN(C)Cc2ccncc2)OCCCC[C@H](C)Oc2ccc(NS(=O)(=O)c3cccs3)cc2C1=O | -0.7 | -3 | 3 | -0.6 | x | x | i | x | x
O=C(CCCCCN1C(=O)c2ccccc2C1=O)NCc1ccco1 | x | x | x | x | -1 | 0.79 | x | 1.0 | 9%
O=c1c2ccccc2c(/C=N/c2ncn[nH]2)c(O)n1Cc1ccccc1 | -4.6 | -33 | -31 | -1.4 | -7 | 0.67&0.68 | i | -2.3&0.8 | 2%&6%
C[C@H]1CN([C@@H](C)CO)C(=O)Cc2cc(N(C)C)ccc2O[C@H]1CN(C)C | 0.7 | 2 | -4 | -0.2 | x | x | i | x | x
Cc1ccc(S(=O)(=O)Nc2ccc3c(c2)C(=O)N([C@H](C)CO)C[C@H](C)[C@H](CN(C)Cc2ccc(C(F)(F)F)cc2)OCCCC[C@@H](C)O3)cc1 | 2.4 | 4 | 1 | 1.2 | x | x | i | x | x
CCc1ccc2[nH]c(O)c(N=Nc3nc(-c4ccccc4)cs3)c2c1 | x | x | x | x | 1 | 0.72 | x | 14 | 5%
CC1=C(C(=O)N2CCOCC2)C(c2cccc(C)c2)NC(=S)N1 (centres undefined) | 0.1 | 10 | 17 | 2.1 | -4 | 0.62 | i | -4.4 | -5%
CCc1cccc(C)c1NC(=O)COC(=O)Cc1ccccc1 | 0.8 | 14 | 10 | 2.9 | x | x | i | -0.9 | -3%
O=C(c1ccccc1[N+](=O)[O-])N1CCN(c2ccc(N3CCOCC3)nn2)CC1 | -3.5 | 0 | 7 | -3.1 | 2 | 0.67 | i | 2.7 | x
CCOCCCN(CCC#N)S(=O)(=O)c1ccc(S(=O)(=O)N2CCCC2)cc1 | x | x | x | x | -1 | 0.64 | x | 0.8 | 1%
COCCC(=O)N1CCOCC1c1cc(C(=O)Nc2ccccc2)no1 (centres undefined) | -2.7 | 8 | 5 | 1.1 | x | x | i | 2.4 | x

4 entries drawn at random from those above:
SMILES | AF4-AF9 inh | rRNA inh HTS | rRNA inh HTS OD600 | rRNA inh HTS RFP | ALR H2O2 inh | Ecoli growth | FGF22 binding | HNF4A DNA FP | Vif A3G
Cc1cccc(C)c1OCC(=O)N(Cc1cccs1)C1CCS(=O)(=O)C1 (centres undefined) | -0.3 | -6 | -9 | 2.2 | -1 | 0.63 | i | 12 | 21%
Fc1ccc(-n2cc(-c3ccccc3)c3c(NN4CCOCC4)ncnc32)cc1 | 9.7 | -14 | -22 | 22 | 31 | 0.66 | i | -4.1 | x
CC1=C(C(=O)N2CCOCC2)C(c2cccc(C)c2)NC(=S)N1 (centres undefined) | 0.1 | 10 | 17 | 2.1 | -4 | 0.62 | i | -4.4 | -5%
C[C@H]1CN([C@@H](C)CO)C(=O)Cc2cc(N(C)C)ccc2O[C@H]1CN(C)C | 0.7 | 2 | -4 | -0.2 | x | x | i | x | x

Next entries
SMILES | AF4-AF9 inh | rRNA inh HTS | rRNA inh HTS OD600 | rRNA inh HTS RFP | ALR H2O2 inh | Ecoli growth | FGF22 binding | HNF4A DNA FP | Vif A3G
CCn1ccnc1CN(C)C(=O)c1cc(COc2c(F)cccc2F)on1 | -0.7 | 11 | 7 | -0.1 | 4 | 0.64 | i | 0.2 | 4%
Cc1cc(OCC(=O)Nc2ccc(S(=O)(=O)NC3=NCCCCC3)cc2)c(C(C)C)cc1Cl | -5.9 | 1 | -7 | 4.9 | 1 | 0.71 | i | -4.6 | x
CCCCOc1ccc(N(CC(=O)NC2CCCC2)C(=O)CCC(=O)Nc2ccccn2)cc1 | x | x | x | x | 1 | 0.79 | x | 0.3 | 31%&-1%
CCOC(=O)c1c(C=O)c(C)n(Cc2ccccc2Cl)c1C | x | x | x | x | 3 | 0.63 | x | 2.1 | -8%
CN(C)c1oc(-c2ccccc2Cl)nc1C#N | 5.7 | -2 | -5 | 0.3 | -2 | 0.64 | i | 2.3 | 12%
CCOC(=O)CC(=O)Nc1nnc(C(C)C)s1 | x | x | x | x | 17 | 0.73 | x | -1.5 | 8%
CC(=O)c1ccc(N2C(=O)NC3(CCCCC3)C2=O)cc1 | x | x | x | x | -5 | 0.79 | x | 1.6 | 1%
CNC[C@@H]1Oc2ccc(NS(C)(=O)=O)cc2C(=O)N([C@H](C)CO)C[C@@H]1C | -3.9 | 1 | 1 | -2.3 | x | x | i | x | x
CCCn1c(C(C)NC(=O)c2ccccc2)nc2ccccc21 (centres undefined) | x | x | x | x | x | 0.68 | x | -2.5 | -1%

The list is partial, so the mix of outcomes need not match the whole.
